Mtb bLac sens – beta-lactam sensitization of Mtb H37Rv | inhibition, % at 25 µM | hit rate 0.27% among 330,000 | M. tuberculosis H37Rv growth with meropenem, percent inhibition; hits of this screen are not shown here;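 active = about 74% or more and at least 40 points above the plate without the antibiotic, then above 30% in a dose series; inconclusive = first-round hits that could not be retested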;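 also: growth measured after seven days incubation then overnight dye step; 0% = bacteria only wells and 100% = bacteria with antibiotic; twin plates without the antibiotic show which effects depend on it; some results filed as inactive read as strong as hits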
YopH PTP inh – inhibitors of Yersinia enterocolitica YopH tyrosine phosphatase; fluorescence Ex485/Em525; inhibition, %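 (about 10 µM by stock and volumes)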; hit rate 0.16% among 140,000; AID 898;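 active = inhibition of 50% or more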;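 also: controls were vehicle for no effect and minimum signal wells for full effect; inactives centre near -20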
Arbovirus anti – arbovirus infection inhibition; arbovirus infection cell-based antiviral screen; inhibition, % at 10 µM; hit rate 0.37% among 200,000; AID 1251;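 active = inhibition from about 30%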;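 also: bluetongue infection of BSR cells; cell survival read as ATP light after 72 h; 0% = infected wells without compound and 100% = uninfected wells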
RecA intein inh – blocks M. tuberculosis RecA intein splicing. P9WHJ3. cell-free RecA intein splicing, fluorescence. inhibition, %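 (about 9 µM by stock and volumes)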. hit rate 0.75% among 290,000. AID 2221; in the data active = inhibition above about 30%; inconclusive = no clear call, values can overlap the other calls;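 also: 0% = vehicle wells and 100% = reference inhibitor control wells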
Target sequence (P9WHJ3 whole entry, looked up): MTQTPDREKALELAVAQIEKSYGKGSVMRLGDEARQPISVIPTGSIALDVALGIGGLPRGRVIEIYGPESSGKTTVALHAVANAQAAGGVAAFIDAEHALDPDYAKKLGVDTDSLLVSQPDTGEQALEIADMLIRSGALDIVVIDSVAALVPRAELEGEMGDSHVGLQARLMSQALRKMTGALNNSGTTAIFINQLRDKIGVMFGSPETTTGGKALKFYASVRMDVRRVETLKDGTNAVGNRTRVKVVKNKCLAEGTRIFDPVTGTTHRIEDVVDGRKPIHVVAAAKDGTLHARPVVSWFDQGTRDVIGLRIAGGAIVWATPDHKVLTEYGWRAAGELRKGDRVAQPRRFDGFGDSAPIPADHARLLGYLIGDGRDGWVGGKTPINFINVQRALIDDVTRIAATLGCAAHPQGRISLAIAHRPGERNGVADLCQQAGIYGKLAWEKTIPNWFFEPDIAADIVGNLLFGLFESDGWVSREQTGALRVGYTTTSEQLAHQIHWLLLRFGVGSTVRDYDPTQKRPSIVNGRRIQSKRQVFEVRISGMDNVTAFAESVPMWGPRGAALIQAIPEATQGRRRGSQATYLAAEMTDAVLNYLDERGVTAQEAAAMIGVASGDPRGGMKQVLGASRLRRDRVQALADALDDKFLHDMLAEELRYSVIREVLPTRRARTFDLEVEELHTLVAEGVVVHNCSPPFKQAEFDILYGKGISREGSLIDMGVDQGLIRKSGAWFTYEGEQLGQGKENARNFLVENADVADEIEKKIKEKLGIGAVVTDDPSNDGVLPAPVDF
Mtb H37Rv – M. tuberculosis H37Rv growth inhibitors, H37Rv strain (AID 1626); M. tuberculosis H37Rv growth inhibition; higher % means a stronger effect; inhibition, % at 10 µM; hits with a dose series show IC50 in µM; hit rate 0.95% among 220,000;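 active = confirmed in a dose series; inconclusive = inhibition above 80% but not taken into the dose series; inactive = below 80% or under 30% at every dose of the series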;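 also: bacteria incubated seven days before Alamar blue readout; 0% = bacteria only wells and 100% = bacteria with antibiotic wells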
Arbovirus anti repeat – also measured in Arbovirus anti; calls as there; inhibition, %; measured here: 10K subset replicate screen; many hits read low in the repeat;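 first of two repeat runs on a subset; 0% = infected and 100% = uninfected wells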
Numbers without * were called inactive; u = inconclusive; x = no result given. The list is partial; rates above refer to the full screens.

SMILES	Mtb bLac sens	YopH PTP inh	Arbovirus anti	RecA intein inh	Mtb H37Rv	others
O=C(NCc1nc2ccccc2[nH]1)C1=C[C@@H](c2ccccc2)C[C@@H](OCc2ccc(CO)cc2)O1	0	x	-3	0.3	-4%
CCOC(=O)c1c(C)[nH]c(C(=O)OCC(=O)Nc2ccc(OCC)cc2)c1C	4	6	-3	-2.1	-10%
Cc1cc(C)nc(N2CCCC(C(=O)Nc3nnc(C)s3)C2)n1 (stereo unspecified)	5	-16	0	1.8	-7%
CCN1CCc2c(OCC(=O)N3CCCc4ccccc43)cccc2C1=O	-2	x	13	1.6	-2%
Cc1ccc(C)c(NS(=O)(=O)c2cc(C(=O)NCCC3=CCCCC3)ccc2C)c1	0	-38	-1	0.0	-14%
CCOc1ccccc1C(=O)NCC(=O)OCC(=O)NCCc1ccc(S(N)(=O)=O)cc1	1	-10	-1	1.1	-11%
O=C(NC1CCCCCC1)c1ccc(OCC2CCCO2)cc1 (stereo unspecified)	-7	x	-2	2.2	9%
CCOC(=O)C1CCN(Cc2ccc(OC)cc2OC)CC1	u	-31	-2	9.6	-8%
Cc1c(CC(=O)N2C[C@H]3C[C@@H](C2)c2cccc(=O)n2C3)c(=O)oc2cc(O)c(Cl)cc12	-4	x	x	-486	x
O=C(Nc1ccccc1Oc1cccnc1)C1CCCN(Cc2cccc(Cl)c2)C1 (stereo unspecified)	-4	x	x	1.7	x
O=C(c1ccc([N+](=O)[O-])cc1)N1CCN(Cc2ccccc2)CC1	-5	-32	9	-2.8	-1%
COc1cccc(/C=C/C(=O)N(C)CC(=O)Nc2ccc(Cl)c(C(F)(F)F)c2)c1	-7	x	x	0.1	x
CCCCn1c(-c2ccc(Cl)c(Cl)c2)nc2cc3[nH]c(=O)c(C(C)C)nc3cc21	10	x	x	10	x
Cc1oc(C)c2c(=O)ccc3c(c12)OC(N)=C(C#N)C3c1ccccc1 (stereo unspecified)	65	-44	11	-7.0	5%
S=C(NCc1ccccn1)Nc1cccc(Cl)c1	-10	-33	-4	3.5	4%
CSc1ccc(CN(C)Cc2cc(=O)oc3c(C)c(C)ccc23)cc1	3	x	x	2.2	x
Cc1cccn2c(=O)c(/C=C(\C#N)C(N)=O)c(N3CCN(c4ccccc4)CC3)nc12	-1	x	x	-4.0	x
Cc1cc2ncn(CCC(=O)NC3CCCC3)c2cc1C	-7	x	10	1.4	3%
Cc1cc(-n2c(C)cc(C(=O)CSc3ccc4c(c3)OCCO4)c2C)no1	2	-43	0	0.8	-1%
CCN(CC)S(=O)(=O)c1ccc(N2CCOCC2)c(NCC(=O)Nc2ccc(F)cc2)c1	1	x	10	1.7	-1%
Cc1nn(C)c(C(=O)Sc2cccc(Cl)c2)c1[N+](=O)[O-]	-3	x	x	11	3%
O=C1Cc2cccc3cccc1c23	13	-8	-2	1.4	-5%
CCCC1=NN(c2ccc([N+](=O)[O-])cc2)C(=O)/C1=C/N(C)C	3	-26	17	3.5	2%
CC(c1ccccc1)C1CC(=O)N(Cc2ccco2)C1=O (stereo unspecified)	9	25	11	1.4	-4%
C=C(C)COc1ccc(-c2n[nH]c(C)c2Oc2ccccc2OC)c(O)c1	-9	-1	-36	4.6	-1%
CCc1cc(=O)oc2cc(C)cc(OCC(=O)N3CCC(C(=O)O)CC3)c12	0	x	x	3.0	x
COc1ccc(NC(=O)N2CCC(CO)(CC3CCCCO3)CC2)c(OC)c1 (stereo unspecified)	-1	x	x	-1.0	-5%
Cc1ccc(NC(=O)c2cccc(C(=O)Nc3ccc(C)cc3C(=O)O)c2)c(C(=O)O)c1	7	x	x	-2.2	x
Cc1cccc(N2CCN(C(=O)c3ccc(Cl)c(S(=O)(=O)N4CCc5ccccc5C4)c3)CC2)c1C	13	-27	8	1.6	15%
CS(=O)(=O)N(CC(=O)Nc1ccccc1C(=O)N1CCCC1)c1cccc([N+](=O)[O-])c1	-1	x	5	2.5	3%
CCOc1ccc(CCNS(=O)(=O)c2cn(C)cn2)cc1OCC	-6	x	x	3.7	x
CC(=O)Nc1ccc(S(=O)(=O)N2CCC(=O)Nc3ccccc32)cc1	-7	x	2	-1.0	-4%
Cn1cc(Br)c(C(=O)Nc2ncc(Br)s2)n1	4	x	-13	-1.4	6%
CCN1CCN(c2c(Cl)cccc2NC(=O)c2cccs2)CC1	-10	x	x	0.4	x
CNC(=O)CSCCn1c(SCC(=O)NC)nc2ccccc2c1=O	-1	-3	2	-0.2	-2%
COc1ccc(N2CCN(C(=O)CSc3nnc4c(C)cc5ccc(C)c(C)c5n34)CC2)cc1	-4	-8	-3	-0.3	-3%
CCC1CCCCN1CCCNC(=O)CC1Oc2ccccc2NC1=O (stereo unspecified)	-3	-31	18	x	-5%
Cc1cc(OC(C)C(=O)NCC2CCC(C(=O)O)CC2)c2c(C)c(Cc3ccccc3)c(=O)oc2c1 (stereo unspecified)	-2	x	x	-2.5	x
C#CCNC(=O)C1=C[C@@H](C)[C@H](CCCO)[C@@H](OCC)O1	-12	x	x	1.1	-3%
C=CCn1c(=O)c(C(=O)OCC)c(O)c2ccccc21	12	x	5	x	10%
CN(Cc1ccccc1OCCO)CC1CCCN(CCc2ccc(Cl)cc2)C1 (stereo unspecified)	-3	x	x	-1.6	x
CN(Cc1ccon1)C(=O)C1CCN(C2CCN(CCCc3ccccc3)CC2)CC1	3	x	x	-3.3	x
CCCCCOC(=O)c1c(N)n(CCOC)c2nc3ccccc3nc12	5	-6	-7	-134	-10%
CCCCOc1nc(N)nc(-c2ccccc2)n1	-26	-1	-3	6.1	2%
Cn1nnnc1SCC(=O)c1ccc2c(c1)OCCO2	-3	x	-1	2.0	1%
Cc1ccc2[nH]c(C(=O)N3CCCC(Nc4ccc(F)cc4)C3)cc2c1 (stereo unspecified)	4	x	x	7.2	x
Cc1cc(Nc2ccccc2)n(CCO)n1	-23	-24	4	-0.3	-24%
O=C(c1cc2ccccc2o1)c1cccs1	15	-17	0	4.2	-4%
CC(Cc1ccccc1)NC(=O)NC(C)Cc1ccccc1 (stereo unspecified)	-6	-7	-1	-3.0	-15%
CCc1c(C)nc(SCC(=O)N2CCCCC2)[nH]c1=O	5	x	x	1.3	x
COc1ccc(NC(=O)Cn2nnc(C(=O)NCc3ccc4c(c3)OCO4)c2N)c(OC)c1	21	x	x	-0.9	x
COc1ccc(CC(=O)Nc2nncs2)cc1OC	0	-29	6	0.2	-10%
CC(=O)Nc1ccccc1C(=O)OCC(=O)c1cccc2ccccc12	6	1	-4	12	0%
N#Cc1cccc(NC(=O)CCC2CCCC2)c1	34	-13	15	4.3	2%
COc1cc(NC(=O)N2CCOCC2)cc(OC)c1	-2	-26	3	1.3	-1%
COc1ccccc1-n1nnnc1SCC(=O)NC1CCCC1	-2	-30	2	-2.0	1%
CC(CCc1ccccc1)NC(=O)CSc1nc(N)cc(N)n1 (stereo unspecified)	8	-26	2	4.7	-5%
O=[N+]([O-])c1cccc(-c2nnc(C3CC3)o2)c1	3	x	x	-2.9	x
O=C(c1cccc(-c2nnc(-c3ccccc3)o2)c1)N1CCCCCC1	87	-9	0	1.3	11%
Cc1ccccc1C(=O)O/N=C(\N)Cc1cccs1	-9	x	x	1.3	x
More compounds
SMILES	Mtb bLac sens	YopH PTP inh	Arbovirus anti	RecA intein inh	Mtb H37Rv	others
CN1C(=O)c2ccc(NC(=O)c3cccc(N4C(=O)CCC4=O)c3)cc2C1=O	8	x	-2	-1.1	-5%
O=C(CN1C(=O)C2C3CCC(C3)C2C1=O)NCc1ccco1 (stereo unspecified)	-4	x	6	1.9	-6%
c1ccc(-c2oc3ncnc(NCCN4CCOCC4)c3c2-c2ccccc2)cc1	92	-15	-2	16	20%
COc1cc(CN2CCC(n3nccc3NC(=O)CCCc3ccccc3)CC2)ccc1O	-4	x	x	-2.7	x
CC(C)C[C@H](NC(=O)N1CCn2c1nc1ccccc12)C(=O)N[C@H](Cc1ccccc1)C(=O)O	-4	x	x	-0.9	x
Cc1cc(O)c(NC(=O)c2ccc(C)c([N+](=O)[O-])c2)cc1C	7	x	1	0.4	3%
CCOCCCNC(=S)NCCc1ccccc1	2	-13	2	-1.6	9%
C/C=C(\C)C(=O)N1CCC(C(=O)c2ccccc2)CC1	-3	x	x	0.1	x
CCC1Oc2ccccc2N(CC(=O)NCCN2CCc3ccccc3C2)C1=O (stereo unspecified)	6	-17	7	0.0	17%
CC(=O)c1nc(N2C(=O)CC(Cc3ccccc3)C2=O)sc1C (stereo unspecified)	0	-34	-9	-2.6	-8%
Cn1nc(C(=O)N2CCC(C(N)=O)CC2)c2c1-c1ccccc1SC2	1	x	x	-0.4	x
O=P(c1ccccc1)(c1ccccc1)N(c1ccccc1)c1ccccc1	0	-12	-8	-0.6	9%

Continued, starting with the last 7 of the part before.
SMILES	Mtb bLac sens	YopH PTP inh	Arbovirus anti	RecA intein inh	Mtb H37Rv	others
Cc1cc(O)c(NC(=O)c2ccc(C)c([N+](=O)[O-])c2)cc1C	7	x	1	0.4	3%
CCOCCCNC(=S)NCCc1ccccc1	2	-13	2	-1.6	9%
C/C=C(\C)C(=O)N1CCC(C(=O)c2ccccc2)CC1	-3	x	x	0.1	x
CCC1Oc2ccccc2N(CC(=O)NCCN2CCc3ccccc3C2)C1=O (stereo unspecified)	6	-17	7	0.0	17%
CC(=O)c1nc(N2C(=O)CC(Cc3ccccc3)C2=O)sc1C (stereo unspecified)	0	-34	-9	-2.6	-8%
Cn1nc(C(=O)N2CCC(C(N)=O)CC2)c2c1-c1ccccc1SC2	1	x	x	-0.4	x
O=P(c1ccccc1)(c1ccccc1)N(c1ccccc1)c1ccccc1	0	-12	-8	-0.6	9%
COC(=O)c1cccnc1N1CCN(c2ccccc2F)CC1	2	-22	-13	x	7%
COc1cccc(/C=N/Nc2cc(N3CCOCC3)ncn2)c1O	75	x	x	2.0	x
O=C(Cc1ccccc1)OCC(=O)c1ccccc1	1	x	x	1.6	x
CCOCCn1cnc2sc(C(=O)NCC(=O)OCC)c(C)c2c1=O	-6	-43	0	0.0	-8%
Nn1c(SCC(=O)Nc2ccc(F)cc2F)nnc1C1CCCCC1	12	-40	3	0.4	-3%
CN(Cc1ccccc1)c1nc2c(c(=O)n(C)c(=O)n2C)n1CCSc1ncccn1	-1	-28	11	-2.1	6%	Arbovirus anti repeat=5
Cc1ccccc1C(=O)NNC(=O)c1cccc(Br)c1	-5	x	x	1.7	x
Cc1ccn2c(C(=O)CSc3ccccc3Cl)c(C)nc2c1	-2	-38	-1	0.9	4%
O=C(NCc1ccccc1)N1CCCC1	-4	x	x	-1.6	x
CCO/N=C(\C)c1c(O)c2ccccc2n(C)c1=O	2	-25	-1	-0.8	-1%
CCOc1ccc(-c2cnc(SCC(N)=O)nc2N)cc1	81	-24	3	-8.9	9%
CCC(=O)Oc1ccc2c(c1)O/C(=C\c1ccco1)C2=O	0	x	x	-51	23%
NC1=C(O)C(=O)C(c2ccccc2)O1 (stereo unspecified)	-3	x	x	-7.4	-15%
O=C(CN1C(=O)NC2(CCCC2)C1=O)OCCOc1ccc(Cl)cc1	-10	x	x	1.6	x
O=C(O)Cn1nc(C(F)(F)F)c2c1CCC2	1	-29	7	3.1	-4%
CCOC(=O)c1sc(NS(=O)(=O)c2ccc(F)cc2)nc1C	-4	x	0	0.3	-7%
Cc1onc(-c2ccccc2)c1C(=O)N(Cc1ccccn1)Cc1ccccn1	-3	x	x	0.7	-5%
CCc1nnc(NS(=O)(=O)c2ccc(NS(=O)(=O)c3ccccc3)cc2)s1	0	-40	3	1.2	2%
CCOc1cc(C(c2c(O)nc(SC)[nH]c2=O)c2c(O)nc(SC)[nH]c2=O)ccc1O	5	x	x	-2.3	x
CC(=O)N(CCCN(C)C)c1nc2ccc(C)cc2s1	-2	x	-5	-7.2	0%
Cc1nn(C)c(C)c1S(=O)(=O)N1CCCC(C(=O)N2CCN(c3ccc(Cl)cc3)CC2)C1 (stereo unspecified)	-3	30	2	3.0	-10%
COC(=O)C1=C(CSc2nc3c(cc2C#N)CN(C)CC3)OC(N)=C(C#N)C1c1ccccc1F (stereo unspecified)	-16	-20	-2	-20	2%
CCc1nnc(NC(=O)c2cc(C)oc2C)s1	-6	x	x	-0.5	x
C/C(=N\O)C(C)(C)NC(=O)Nc1ccc(Cl)cc1	u	-42	6	-5.4	-7%
Fc1ccc(/C=N/n2c(COc3ccccc3)n[nH]c2=S)cc1	1	x	x	-0.4	x
COC(=O)C1NN=C(C(=O)c2ccc(Cl)cc2)C1c1ccc(OC)cc1 (stereo unspecified)	45	-18	-4	0.0	2%
O=C(Cc1ccc(Cl)cc1Cl)OCC(=O)N1CCCCC1	-8	x	x	-0.6	x
COc1ccc(/C=C2\Oc3cc(OCC(=O)N4CCC(C(=O)O)CC4)ccc3C2=O)c(OC)c1	-4	x	x	-7.0	x

Screening results (PubChem)
